# PABP polyA inh – PABP poly(A) RNA binding inhibitors, primary screen, biochemical, fluorescence polarization, uHTS | actives 1% (n = 290,000) | AID 2014, 2009 | Polyadenylate-binding protein 1 (Homo sapiens), P11940 | inhibition, % at 35 µM;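 active = 50% or more with normal probe brightness, or confirmed in later tests; inconclusive = above 50% with abnormal brightness, or retests that disagree; inactive = below 50% or failed in later tests; about a fifth of its hits are not listed in these tables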;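 also: calls also rest on retests at 20 µM and on dose response follow-up; controls were probe without protein and protein plus probe with vehicle; some compounds called inactive have numbers as strong as hits; many hits fall short of the cut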
# Target sequence (P11940 whole entry, looked up): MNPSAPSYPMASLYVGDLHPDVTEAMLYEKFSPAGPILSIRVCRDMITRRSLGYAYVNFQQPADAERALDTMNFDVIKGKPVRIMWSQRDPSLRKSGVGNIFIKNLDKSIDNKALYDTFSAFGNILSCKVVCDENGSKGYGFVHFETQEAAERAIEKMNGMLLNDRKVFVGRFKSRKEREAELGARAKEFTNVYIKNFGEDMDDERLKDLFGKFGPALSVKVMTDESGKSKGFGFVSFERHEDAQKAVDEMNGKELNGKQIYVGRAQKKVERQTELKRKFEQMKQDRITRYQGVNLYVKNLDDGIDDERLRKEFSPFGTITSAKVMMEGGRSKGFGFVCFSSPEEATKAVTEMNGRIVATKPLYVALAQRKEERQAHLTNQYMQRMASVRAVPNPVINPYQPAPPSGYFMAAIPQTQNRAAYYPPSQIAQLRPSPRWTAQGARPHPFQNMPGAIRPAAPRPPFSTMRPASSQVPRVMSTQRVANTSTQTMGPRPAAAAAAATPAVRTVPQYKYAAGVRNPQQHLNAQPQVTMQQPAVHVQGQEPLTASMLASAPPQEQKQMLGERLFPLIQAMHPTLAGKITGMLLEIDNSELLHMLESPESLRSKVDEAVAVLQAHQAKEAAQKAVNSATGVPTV
# Rce1 inhib – yeast Rce1p protease inhibitors, primary screen, biochemical, fluorescence, cell-free homogeneous. yeast membranes, quenched prenylated peptide cleavage fluorescence. CAAX prenyl protease 2 (Saccharomyces cerevisiae (strain ATCC 204508 / S288c)), Q03530. calls only. AID 2563, 2010. actives 0.27% (n = 290,000);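 active = fall in fluorescence gain of 50% or more versus controls, with final raw signal at or below 3038400; inconclusive = same 50% fall but final raw signal above 3038400; inactive = fall in fluorescence gain under 50%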;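 also: plate controls were neutral control wells for no effect and wells lacking membranes for full effect; tested at 10 µM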
# Target sequence (Q03530 whole entry, looked up): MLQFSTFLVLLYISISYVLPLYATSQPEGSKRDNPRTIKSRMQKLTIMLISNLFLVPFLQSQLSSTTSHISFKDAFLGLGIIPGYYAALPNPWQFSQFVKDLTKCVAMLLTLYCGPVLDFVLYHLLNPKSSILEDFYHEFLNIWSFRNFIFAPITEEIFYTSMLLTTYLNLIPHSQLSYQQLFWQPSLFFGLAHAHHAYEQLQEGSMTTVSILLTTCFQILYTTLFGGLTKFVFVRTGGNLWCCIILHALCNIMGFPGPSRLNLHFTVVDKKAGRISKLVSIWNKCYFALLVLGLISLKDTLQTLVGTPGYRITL
# Yeast UUG start – modulators of yeast start codon fidelity, primary screen, whole organism, S. cerevisiae, single point, plate reader | S. cerevisiae UUG-firefly luciferase reporter, luminescence/redox ratio | actives 0.13% (n = 350,000) | activity score, % at 18.7 µM | AID 602363, 2012;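 active = replicate mean at a twofold rise or more, about +100% in these data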;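 also: firefly luciferase made from a UUG start codon reports start codon fidelity; reporter light over untreated wells divided by growth signal over untreated wells; some hits fall short of that in this replicate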
# HIV Env fusion – inhibitors of HIV-1 Env-driven cell-cell fusion, primary screen, HeLa-JRFL effector, CEM21 target cells, luciferase. actives 1.1% (n = 360,000). AID 651610, 2012. inhibition, % at 12.3 µM;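 active = mean replicate inhibition score of at least 50 and every replicate individually at or above 50; inconclusive = only one of the two criteria met; inactive = mean below 50 and not all replicates reaching 50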;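 also: 0% = plate neutral controls and 100% = maraviroc near 300 nM; one replicate is shown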
# eIF4H inh – human eIF4H binding inhibitors, primary screen, translation initiation inhibitor project, biochemical, uHTS, fluorescence polarization; eIF4H fluorescence polarization binding assay; inhibition, % at 35 µM; actives 0.94% (n = 290,000);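 active = 50% or more with normal probe brightness, or confirmed in later tests; inconclusive = above 50% with abnormal brightness, or retests that disagree; inactive = below 50% or failed in later tests; about a fifth of its hits are not listed in these tables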;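 also: calls also rest on retests at 20 µM and on dose response follow-up; 0% = protein and probe with vehicle and 100% = probe without protein; strong numbers were not always called active; many hits fall short of the cut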
# MT1-MMP act inh – blockers of MT1-MMP proenzyme processing, primary screen, HT1080 RFP-PRO-GFP cells, GFP/RFP fluorescence; actives 0.061% (n = 360,000); GFP/RFP ratio change, % at 20 µM; GFP/RFP ratio fluorescence, overnight; percent of plate control window, DMSO zero; Matrix metalloproteinase-14 (Homo sapiens), P50281; AID 651647, 2012;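 active = GFP/RFP ratio change of at least 30% with cell ATP level not reduced by more than half and red fluorescence within 50% of control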; also: strong numbers were not always called active
#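 Material: RFP-PRO-GFP reporter HT1080 cells. Dosing: single-point 20 µM compound, 1% DMSO. Controls: DMSO and RFP-L50D-GFP cell wells. Timing: cells overnight before dosing, compound overnight, 37 °C, 5% CO2. Measure: GFP/RFP fluorescence ratio.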
# CSC inhib – cancer stem cell viability inhibitors, primary screen, luminescence | cancer stem cell-like cells viability | inhibition, % at 7.5 µM | actives 1.1% (n = 300,000);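 active = mean at 75% or more and at least half the replicates too; inconclusive = mean and replicates disagree; tested in HMLE shEcad cells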;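 also: 0% = median of negative and 100% = median of positive control wells; the first replicate is given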
# MT1-MMP act inh RFP – recorded beside MT1-MMP act inh, whose call it bears; RFP signal change, %; measured here: RFP expression control read;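 0 = vehicle wells; hits needed this value within 50% of zero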
# * hit, by the source's call; i = inactive; u = inconclusive; x = not tested or not shown; + = active, no number; & = joins results of further samples. Only part of the results is shown (hit frequency here may not be typical).
SMILES,PABP polyA inh,Rce1 inhib,Yeast UUG start,HIV Env fusion,eIF4H inh,MT1-MMP act inh,MT1-MMP act inh RFP,CSC inhib
CCc1nccn1S(=O)(=O)c1ccc2ccc(C)cc2c1,1,i,5,x,4,-6,2,-4
COc1ccc(N2C(=O)CC(Sc3ncn[nH]3)C2=O)c(OC)c1 (stereo not given),5,i,-5,x,-9,4,3,65
O=c1c2ccccc2nc2ccc(N3CCOCC3)nn12,8,i,-7,-35,-5,-5,-4,0
CC(C)NC(=O)NC(=O)COC(=O)c1cc[n+]([O-])cc1,4,i,-6,3,2,2,3,-16
COc1ccc(C2CC(c3cccs3)=NN2c2ccc(C=O)cc2)cc1 (stereo not given),-2,+,x,11,u,x,x,19
COc1ccc(/C=N/NC(=O)Cn2nc([N+](=O)[O-])cc2C)c(OC)c1OC,-6,i,x,-7,-12,0,3,1
COc1ccc(S(=O)(=O)N2CCCCC2)cc1NC(=O)c1cccnc1SC,-3,i,x,15,-4,-4,4,13
Cc1ccc(/C=C/C(=O)NC2CCS(=O)(=O)C2)cc1 (stereo not given),-7,i,x,-9,0,0,-1,-14
Clc1cccc(OCCCn2ccnc2)c1,-8,i,-18,-5,3,3,-1,-23
O=C(COc1cccc(C(F)(F)F)c1)Nc1ccc(S(=O)(=O)N2CCCCC2)cc1,x,i,x,x,x,10,-4,10
Oc1c(Cl)cc(Cl)c2cccnc12,-6,i,-34,18,19,4,2,x
CC(C)(C)C(=O)CSc1ncnc2c1cnn2-c1ccccc1,-14,i,-12,-81,-3,-1,-15,-2
C=CCNC(N)=S,-1,i,-2,17,26,-1,4,-13
CCC(NC(=O)Cn1cnc2c(=O)n(C)c(=O)n(C)c21)c1ccccc1 (stereo not given),-4,x,-18,6,3,1,2,-7
CCn1c(=O)c(C(=O)NCCc2ccccc2)c(O)c2ccccc21,-3,i,-5,x,0,0,-8,95*
Cc1ccc2nc(COC(=O)c3cccnc3Cl)cc(=O)n2c1,x,x,-16,-5,x,1,4,x
O=C(c1cc2c(ccc3ccccc32)o1)N1CCN(c2ncc(C(F)(F)F)cc2Cl)CC1,-4,i,-22,8,-1,0,-2,8
COc1ccc2c(=O)cc(-c3cccnc3)oc2c1OC,10,i,7,8,0,4,8,0
CCn1c(SCC(=O)NC2CCCc3ccccc32)nnc1-c1ccncc1 (stereo not given),1,i,x,28,-10,4,3,8
CCOc1ccc(-n2c(SCC(=O)Nc3ccccc3C)n[nH]c2=O)cc1,-4,i,-11,-53,-5,-5,-2,-4
CCc1ccc(-n2ccc(=O)c(C(=O)O)n2)cc1,14,i,-3,-1,10,1,1,-3
COc1ccc(/C=N/n2c(C)nc3ccccc3c2=O)cc1,-3,i,-3,7,-6,1,2,-6
COc1ccc(C)cc1N(C(=O)c1cccc(F)c1)c1nc2ccccc2s1,15,x,73,-9,-7,1,6,30
CCCCn1c(=NC(=O)c2cccnc2)c(C(=O)OCC)cc2c(=O)n3ccccc3nc21,7,i,-11,-48,-5,5,4,x
COC(=O)C1=CN(CC2CCCO2)C=C(C(=O)OC)C1c1cccc(O)c1 (stereo not given),-2,+,x,-8,-1,3,1,-6
CCCCOc1ccc(/C(O)=C2/C(=O)C(=O)N(CCN(C)C)C2c2ccc(O)c(OC)c2)cc1 (stereo not given),-13,i,-6,-27,-11,4,4,1
Cc1cccc(CN2CCN(CC(=O)N3CCCC3)C2=O)c1,0,i,-6,-33,-3,1,6,-9
C=CCN1C(=O)CSC1=Nc1ccc(O)cc1,-3,i,x,27,-1,9,6,-4
Oc1ccc2c(c1)C1CCCC1(N1CCOCC1)O2 (stereo not given),33,i,1,-42,34,0,2,-7
CCC(=O)N1CCc2cc(S(=O)(=O)NCCC(=O)Nc3cc(C)cc(C)c3)ccc21,6,i,-7,0,4,-7,-12,-5
Cc1cc(C(=O)COC(=O)c2ccc(N)c([N+](=O)[O-])c2)c(C)n1-c1ccc2c(c1)OCO2,-10,i,-16,36,8,0,-17,9
O=C(NCCc1ccccc1)C1CCN(S(=O)(=O)c2ccc(-c3nn[nH]n3)cc2)CC1,2,i,-21,x,-5,1,5,-10
CCOCCn1c(CN2CCCCC2)nc2c1c(=O)n(C)c(=O)n2C,-2,i,-7,x,-4,-2,3,-14
Cc1ccc2c(CC(=O)OCC(=O)Nc3ccc(Cl)cn3)coc2c1,-8,i,-3,-19,14,1,5,2
COCCCNC(=S)N1CCCN(c2nc3cc(C)ccc3cc2C#N)CC1,24,i,x,31,8,0,-5,-3
COc1ccc(S(=O)(=O)N=C2C=C(C)C(=O)C(C)=C2)cc1,-2,i,-12,-17,10,6,5,-1
Cn1c(CNc2ccccc2)cc(=O)n(C)c1=O,5,i,1,-46,-2,5,1,0
N#Cc1c(SCC(=O)O)nc(N2CCCCC2)c2c1CCCC2,4,i,-19,x,14,1,4,15
COc1cccc(-n2cn[nH]c2=S)c1,0,i,x,8,-6,1,2,-4
COc1ccc(CCNC(=O)c2ccc3c(c2)OCO3)cc1,2,i,-16,-20,6,-4,-3,-8
Cc1cc(CN2CCC(n3nccc3NC(=O)c3ccccc3Cl)CC2)cc(C)c1O,-8,i,-14,-3,-7,2,4,-10
O=C(NC1(C(F)(F)F)NC(=O)N(C2CCCC2)C1=O)C1CC1 (stereo not given),16,i,-10,x,-6,0,0,1
CCOC(=O)c1cnc2c(C)cc(Cl)cc2c1N1CCN(C)CC1,13,i,x,20,-3,-8,-6,-2
C(=C\c1ccccn1)/c1ccncc1,20,i,-25,-28,9,-2,0,0
O=C1Nc2ccccc2N=C(c2ccccc2)C1N(C(=O)c1ccnc2ccccc12)c1ccccc1 (stereo not given),x,x,-19,-99,x,-2,-7,x
Cc1cc(C)nc(NN=C2CCCC2)n1,-9,i,x,-5,-10,3,5,-15
CC(C)Cc1cc(C(=O)N2CCCC(C(=O)c3cc(F)ccc3F)C2)n(C)n1 (stereo not given),6,i,3,6,-14,0,-7,0
CCN(CC)S(=O)(=O)c1ccc(OCCNS(C)(=O)=O)cc1,-2,i,x,-4,5,0,1,2
CCc1cc(C(c2ccc(F)cc2)N2CCOCC2)c(NC(=O)c2ccccc2)s1 (stereo not given),-7,x,-8,x,-11,-7,-5,-4
CC(=O)Oc1ccc(Cl)cc1/C=C/c1ccc2ccccc2n1,16,i,x,x,-3,-11,-12,49

# (next part)
SMILES,PABP polyA inh,Rce1 inhib,Yeast UUG start,HIV Env fusion,eIF4H inh,MT1-MMP act inh,MT1-MMP act inh RFP,CSC inhib
O=C1N(c2cccc3ccccc23)C(c2ccccc2)N2CCCN12 (stereo not given),-13,i,-5,9,-3,-2,7,1
Cc1nn(-c2ccc(N3CCCCC3)nn2)c(C)c1CCC(=O)Nc1ccc(F)cc1,0,i,1,-18,-8,2,-6,-12
C[C@@H]1COC(=O)[C@@H](CC(=O)OC(C)(C)C)C/C=C\C[C@H](CC(=O)N(CCO)Cc2ccccc2)C(=O)N1,x,x,-2,-7,x,-1,0,-10
Cc1ccc(C(=O)Nc2cccc(-c3cnc4ccccc4n3)c2)cc1,-7,i,-1,x,-2,5,1,-13
O=C1CSC2(C(=O)N3CCCc4cccc2c43)N1c1cccc(C(F)(F)F)c1 (stereo not given),-6,x,10,x,1,1,-2,0
O=S(=O)(NCc1ccccn1)c1ccc(F)cc1,4,i,-9,x,-2,6,3,-6
COC(=O)c1ccc(CNC(=O)c2sccc2-c2ccccc2)cc1,10,i,9,2,5,8,-14,-4
COc1ccc(NC(=O)c2ccc(-c3ccc([N+](=O)[O-])cc3)o2)cc1OC,-8,i,-16,28,-13,3,-5,-6
C=CCn1c(=O)c2ccccc2n2c(SCC(=O)N3CCCc4ccccc43)nnc12,-1,i,-10,-30,-6,-4,-3,4
O=C(O/N=C(/c1ccccc1)c1ccncc1)c1ccc(F)cc1,-2,i,x,-3,-2,1,4,-13
COc1ccc(/C=N/NC(=O)CNC(=O)c2ccncc2)cc1OC,8,i,-18,-6,-9,7,14,6
c1ccn2c(SCc3cn4ccsc4n3)nnc2c1,-3,i,-26,x,1,0,4,-2
Cn1c(SCC(=O)NCc2ccc(F)cc2)nc2ccccc21,2,i,-30,-119,-4,5,2,6
CC(=O)Nc1ccc2c(c1)C(=O)N(C1CCCCC1)C2=O,2,i,0,x,-22,-2,-1,-7
O=C(Cc1ccccc1)Nc1ccc(C(=O)Nc2ccc(O)cc2)cc1,4,i,-14,-2,-2,6,0,-4
CC(C)CC(=O)Nc1ccccc1N1CCN(C(=O)c2ccccc2)CC1,-5,i,-6,x,-12,0,1,-9
O=C1C=C(N2CCCCC2)c2ccccc2C1=O,x,i,-31,u,x,-4,-3,97*
COc1ccc2cc3cc(C(=O)NCCN4CCc5ccccc5C4)oc3nc2c1,-5,x,27,x,-4,4,-8,0
Cc1[nH]nc2nc(SCC(=O)NCC3CCCO3)n(-c3ccc(Br)cc3)c(=N)c12 (stereo not given),1,i,-9,x,-12,6,-2,-3
Cc1sc2ncn(CC(=O)N3CCC(C(N)=O)CC3)c(=O)c2c1S(=O)(=O)N1CCOCC1,-1,x,-17,-12,-6,0,6,-11

# A second format for part of the listing above:
canonical_smiles | PABP polyA inh | Rce1 inhib | Yeast UUG start | HIV Env fusion | eIF4H inh | MT1-MMP act inh | MT1-MMP act inh RFP | CSC inhib
CC(=O)Nc1ccc2c(c1)C(=O)N(C1CCCCC1)C2=O | 2 | i | 0 | x | -22 | -2 | -1 | -7
O=C(Cc1ccccc1)Nc1ccc(C(=O)Nc2ccc(O)cc2)cc1 | 4 | i | -14 | -2 | -2 | 6 | 0 | -4
CC(C)CC(=O)Nc1ccccc1N1CCN(C(=O)c2ccccc2)CC1 | -5 | i | -6 | x | -12 | 0 | 1 | -9

# Going on with the list:
SMILES,PABP polyA inh,Rce1 inhib,Yeast UUG start,HIV Env fusion,eIF4H inh,MT1-MMP act inh,MT1-MMP act inh RFP,CSC inhib
CC1(C)CC(NC2C3CC4CC(C3)CC2C4)CC(C)(C)N1 (stereo not given),4,i,-14,8,-7,2,2,-3
CN(Cc1ccc(Cl)cc1)C(C(=O)NC1CCCCC1)c1ccnc2ccccc12 (stereo not given),x,x,-15,8,x,-11,-12,x
CCc1noc(C)c1C(=O)NCCc1ccc(Cl)cc1,x,i,-34,1,x,-2,2,-1
CC(CCc1ccccc1)NC(=O)CNC(=O)c1cccs1 (stereo not given),8,i,-16,2,-1,1,5,-3
CCC(=O)Nc1ccc2c(c1)C(=O)c1ccccc1C2=O,10,i,9,-148,0,-1,-2,7
CCC(=O)Nc1cccc(NC(=S)NC(=O)c2ccc(C)cc2)c1,6,i,x,-37,-9,3,-7,27
CCCCn1nc(C(=O)N(CCOC)c2c(N)n(CCCC)c(=O)[nH]c2=O)c2ccccc2c1=O,x,x,-5,x,x,2,4,-1
C[C@@H]1CN([C@H](C)CO)S(=O)(=O)c2ccc(Br)cc2O[C@H]1CN(C)S(C)(=O)=O,x,x,-20&6&-2,-9,x,-2,3,x
COc1ccccc1OCc1ccc(C(=O)NC(C)(C)C)o1,0,i,4,x,3,2,-10,4
O=S(=O)(NC(=S)NC1CCCCC1)c1cccs1,-5,i,x,-28,2,1,-1,4
COc1ccc(CCNC(=O)C2(C)CCC(=O)N2Cc2ccc3c(c2)OCO3)cc1OC (stereo not given),-16,i,3,-16,-20,3,5,-13

# Screening data: PubChem, several laboratories
